Source: PubChem BioAssay (several laboratories)
UCH37 inh: blocks the human deubiquitinase UCH37; Q9Y5K5; purified proteasome/UCH37, Ub-AMC cleavage fluorescence; 330,000 compounds, 0.33% hits; inhibition, % (no concentration beside the values);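 active means mean of two replicates above 20%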;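 further: 0% = compound-free wells with enzyme and 100% = wells lacking proteasome; stock transfer was 100 nL into about 20 µL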
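Material: human UCH37 enzyme supplied as purified proteasome complex / Amount: 0.15 nM proteasome as dispensed / Buffer or medium: pH 7.4 Tris-HCl (50 mM) with ovalbumin, ATP-MgCl2, DTT / Times: preincubation 30 min, reaction 25 min, room temperature / Technique: AMC fluorescence from Ub-AMC cleavage, excitation 355 nm, emission 460 nm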
Bfl-1 A1 inh: inhibitors of the anti-apoptotic protein A1, read as caspase activation; MEF A1-2A-BIM cells, Caspase-Glo 3/7 luminescence, 3 h; percent of clofoctol response, vehicle zero; caspase activation, % (test concentration not listed); 330,000 compounds, 0.066% hits;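 active means over half of replicate activation scores above 10%, or exactly half above 10 with the replicate mean above 10; inconclusive means replicate mean below 10 yet half the replicates above 10; inactive means over half of replicates below 10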;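 further: wells of about 30 µL received 50 nL stock; many hits fall short of the cut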
RanGTP-Impb inh: inhibitors of RanGTP-importin-beta interaction, primary screen, biochemical, FRET, CFP-Ran, YFP-importin-beta, homogeneous; cell-free CFP-Ran/YFP-importin-beta FRET ratio; inhibition, % (test concentration not listed); 300,000 compounds, 1.1% hits; AID 2216;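 active means most replicates above 15%; inconclusive means exactly half above 15%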;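 further: 0% = DMSO wells and 100% = Ran loaded with GDP instead of GTP; wells of about 40 µL received 100 nL stock; the first replicate is given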
LANA-H2A inh: blocks KSHV LANA binding to histone H2A/H2B. cell-free LANA-H2A/H2B peptide, fluorescence polarization. inhibition, % (test concentration not listed). 320,000 compounds, 0.6% hits. AID 2629; in the data active means inhibition mostly above about 10%, no sharp cut-off; inactive means mostly below about 6.7%;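 further: stock transfer was 7.5 nL into about 10 µL; 0% = median of vehicle wells and 100% = median of positive control wells; one replicate is shown; the record names a cut of 25% in any replicate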
Target sequence (Q9QR71 whole entry, looked up): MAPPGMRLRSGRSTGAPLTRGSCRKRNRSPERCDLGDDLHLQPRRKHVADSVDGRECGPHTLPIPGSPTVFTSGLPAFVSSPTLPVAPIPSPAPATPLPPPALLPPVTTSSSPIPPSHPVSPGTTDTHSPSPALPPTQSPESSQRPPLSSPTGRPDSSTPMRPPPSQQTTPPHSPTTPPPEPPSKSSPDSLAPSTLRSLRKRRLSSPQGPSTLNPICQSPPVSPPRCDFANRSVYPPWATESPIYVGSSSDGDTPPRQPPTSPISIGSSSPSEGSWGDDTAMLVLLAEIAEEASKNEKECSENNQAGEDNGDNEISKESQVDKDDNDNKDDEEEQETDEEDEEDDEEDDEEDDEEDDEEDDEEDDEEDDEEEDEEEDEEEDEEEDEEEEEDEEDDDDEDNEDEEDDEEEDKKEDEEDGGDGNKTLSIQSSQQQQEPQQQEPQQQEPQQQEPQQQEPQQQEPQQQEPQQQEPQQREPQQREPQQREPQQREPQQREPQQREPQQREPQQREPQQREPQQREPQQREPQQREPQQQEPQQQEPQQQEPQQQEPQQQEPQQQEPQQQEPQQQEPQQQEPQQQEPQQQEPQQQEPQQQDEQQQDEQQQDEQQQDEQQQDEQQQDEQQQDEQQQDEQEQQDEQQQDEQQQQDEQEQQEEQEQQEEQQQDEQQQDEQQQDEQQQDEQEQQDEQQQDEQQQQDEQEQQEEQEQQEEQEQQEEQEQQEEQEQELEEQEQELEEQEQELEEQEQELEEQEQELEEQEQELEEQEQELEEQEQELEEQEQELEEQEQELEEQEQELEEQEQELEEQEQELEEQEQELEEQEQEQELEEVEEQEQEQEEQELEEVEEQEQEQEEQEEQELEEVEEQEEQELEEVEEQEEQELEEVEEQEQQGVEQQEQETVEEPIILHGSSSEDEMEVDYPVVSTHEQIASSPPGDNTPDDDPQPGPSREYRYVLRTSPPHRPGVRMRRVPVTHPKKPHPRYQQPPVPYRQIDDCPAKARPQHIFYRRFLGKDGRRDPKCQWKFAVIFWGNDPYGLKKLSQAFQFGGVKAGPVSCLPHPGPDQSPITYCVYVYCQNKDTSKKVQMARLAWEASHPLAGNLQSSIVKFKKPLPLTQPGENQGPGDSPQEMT
T cruzi inh: T. cruzi replication inhibition | T. cruzi beta-gal in NIH3T3, luminescence, 90 h | inhibition, % (no concentration beside the values) | 300,000 compounds, 1.4% hits | AID 1885;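 active means mean inhibition across valid replicates above about 55%, limit read from the data; inconclusive means mean below that limit but half or more replicates reach it; inactive means mean below it, under half of replicates reach it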;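 further: signal also drops with host cell toxicity which is not excluded here; 0% = plate median of DMSO wells and 100% = zero luminescence signal; higher percent means less beta-gal luminescence so fewer parasites; stock transfer was 50 nL into about 50 µL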
Calb FLC: affects C. albicans growth with fluconazole; C. albicans CaCi-2 (fluconazole-resistant clinical isolate) + fluconazole, Alamar Blue growth, 48 h; growth inhibition, % (concentration not given with the values); 300,000 compounds, 0.57% hits;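 active means most replicates above 75%; inconclusive means exactly half above 75%; inactive means most below 75%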;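 further: all wells also contain fluconazole at 8 µg/ml as a sub-toxic cotreatment; 0% = median of DMSO wells and 100% = median of geldanamycin control wells; wells of about 8 µL received 7.5 nL stock; the first replicate is given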
Beta cell apopt: beta cell apoptosis inhibition; INS-1E cytokine-induced death, ATP luminescence, 48 h; percent of positive-control rescue, neutral wells zero; protection from apoptosis, % (test concentration not listed); 300,000 compounds, 0.8% hits;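 active means all replicates at 75% or more, or half of them and the mean; inconclusive means half reach 75% but not the mean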;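 further: 0% = cytokine-treated negative control wells and 100% = positive control rescue; higher means more ATP so stronger rescue from cytokine killing; wells of about 40 µL received 100 nL stock; the first replicate is given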
B2AR ag: human beta-2 adrenergic receptor agonism by FAP | Am2.2-beta2AR cells, FAP receptor internalization, flow cytometry; reference of the scale not given here | P07550 | 340,000 compounds, 0.43% hits | AID 504454 | response, % (no concentration beside the values);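 active means response above a set limit, near 3 SD of response in nonfluorescent compounds, cut at about 42% in these data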;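 further: stock transfer was 100 nL into about 11 µL; a reference agonist was the positive control; negative values mostly stem from fluorescent compounds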
Numbers without * were called inactive; ? = inconclusive; . = no result given.

SMILES | UCH37 inh | Bfl-1 A1 inh | RanGTP-Impb inh | LANA-H2A inh | T cruzi inh | Calb FLC | Beta cell apopt | B2AR ag
CN(CC(=O)Nc1ccc(F)cc1)C(=O)C1CCN(C(=O)Nc2ccccc2)CC1 | 1.3 | 0.0 | . | -0.4 | . | . | -5 | 2
CCOC(=O)c1sc(NC(=O)C(C)Sc2nnc(N)s2)nc1C (stereo not given) | 3.0 | 0.1 | 0.6 | 2.1 | 5 | 12 | 3 | -6
Cc1cc(C)c(NC(=O)COC(=O)/C=C/c2cccs2)c(C)c1 | -4.6 | 0.8 | -0.6 | 0.2 | -17 | -3 | -9 | 3
NS(=O)(=O)c1cccc(NC(=O)CSc2nnc(C3CC3)n2-c2ccccc2)c1 | 0.8 | -0.3 | . | -0.8 | . | . | -4 | 1
CCc1cc(C(=O)OC)c(NC(=O)CN2CCN(C(=O)c3ccco3)CC2)s1 | 1.0 | -0.4 | 2.7 | -8.5 | 7 | -3 | -2 | 1
CC1CCC(=NNC(=O)Cc2cccn2C)CC1 (stereo not given) | 1.2 | 0.0 | -1.9 | 1.3 | -6 | 5 | 1 | -5
Cc1ccc(NC(=O)CSCC(=O)Nc2nnc(C3CC3)s2)cc1 | 5.0 | -0.5 | -7.0 | -4.3 | -2 | -25 | . | -1
Cc1ccc(NC(=O)C(=O)N2CCCC2)cc1Cl | 1.2 | -2.6 | 5.5 | -8.0 | 0 | 4 | 5 | -2
COC(=O)c1ccc(C2/C(=C(\O)c3ccc(OC)c(C)c3)C(=O)C(=O)N2c2cc(C)on2)cc1 (stereo not given) | 9.5 | -0.3 | 5.6 | -2.8 | -14 | -10 | -5 | -8
CCOc1ccc(S(=O)(=O)N2CCN(C(=O)Cc3ccc(S(=O)(=O)N4CCOCC4)s3)CC2)cc1 | 2.0 | 0.6 | 3.1 | -1.5 | 12 | . | 15 | 5
Cc1cc(C)nc(Nc2ccc(O)cc2)n1 | -1.3 | -0.3 | 0.9 | -5.8 | 12 | -2 | 3 | -10
COc1cc(CC(=O)O)c([N+](=O)[O-])cc1OC | 4.2 | 1.0 | 2.3 | -3.1 | 1 | -4 | -5 | -12
CC(=O)N(Cc1ccccc1)c1ccc(C(=O)O)cc1 | -0.5 | -0.3 | -0.6 | 4.2 | -5 | -5 | -6 | 1
CCN(CC)CCn1c2c(c(SCC(=O)Nc3cc(OC)cc(OC)c3)nc1=O)CCC2 | 4.7 | 0.7 | 4.3 | -3.2 | 4 | -6 | -7 | -1
CCOC(=O)c1nnc(-c2ccccc2)nc1Sc1ccccc1Cl | 6.2 | 0.2 | 1.6 | 0.0 | 13 | 22 | -11 | 10
Cc1ccc(NC(=O)c2snc3ccc(Cl)cc23)cc1C | -5.9 | -1.4 | -2.8 | -3.3 | 8 | -26 | -1 | 2
CCOC(=O)c1c(-c2cccc(N)c2)cn2ccccc12 | -52 | 0.1 | -0.3 | 2.3 | 7 | 21 | -2 | -4
CCOc1ncccc1C(=O)NCc1cccc(OC)c1 | -0.3 | 0.2 | 1.4 | 5.1 | 5 | 15 | -2 | -1
Cc1cc(NC(=O)c2cccc([N+](=O)[O-])c2)no1 | 0.6 | -0.3 | ? | -4.9 | -2 | 14 | -3 | -5
N=C1SCC(=O)N1c1ccccc1Cl | 0.8 | 0.6 | ? | 0.2 | 0 | 3 | 0 | -4
CN(C)CCN1C(=O)C(=O)/C(=C(/O)c2ccc(F)cc2)C1c1ccccc1F (stereo not given) | 11 | . | 0.0 | 6.6 | -9 | 0 | -1 | 8
CC(=O)c1cccc(NC(=S)NCc2ccco2)c1 | 2.3 | 0.5 | 0.2 | -1.3 | -3 | -8 | -7 | -7
COC(=O)c1c(NC(=O)COC(=O)[C@@H](NS(=O)(=O)c2ccccc2)C(C)C)sc2c1CCC2 | 0.3 | 0.1 | 2.8 | 1.5 | 17 | 0 | 6 | -4
COc1ccccc1-c1sc2cc3c(cc2c1-c1ccc(O)cc1)OCO3 | 1.7 | -0.3 | . | -1.1 | . | . | -9 | 7
CC1=NCCN1S(=O)(=O)c1ccccc1[N+](=O)[O-] | 2.6 | -0.1 | 6.1 | 1.8 | -8 | 7 | -2 | 1

The final 2 records of the section before are carried over, then new ones follow:
SMILES | UCH37 inh | Bfl-1 A1 inh | RanGTP-Impb inh | LANA-H2A inh | T cruzi inh | Calb FLC | Beta cell apopt | B2AR ag
COc1ccccc1-c1sc2cc3c(cc2c1-c1ccc(O)cc1)OCO3 | 1.7 | -0.3 | . | -1.1 | . | . | -9 | 7
CC1=NCCN1S(=O)(=O)c1ccccc1[N+](=O)[O-] | 2.6 | -0.1 | 6.1 | 1.8 | -8 | 7 | -2 | 1
Cc1cccc2c1-c1sc(C(=O)Nc3nccs3)cc1CO2 | -80 | -5.1 | 22* | 0.9 | -9 | -10 | 1 | -11
CC1(C)CC(=O)C(N=Nc2cccc(F)c2C#N)=C(O)C1 | 11 | 1.1 | -2.7 | -0.7 | -46 | 6 | . | -16
CCN(CC)C(=O)[C@H]1CC(CC(=O)NCc2cccc(C(F)(F)F)c2)C(=O)N2CCc3c([nH]c4ccccc34)[C@]12C (stereo not given in full) | 4.1 | 0.0 | . | 1.9 | . | . | -2 | -8
COc1ccc(CCNC(=O)COc2ccc(S(=O)(=O)NC(C)C)cc2)cc1OC | -2.1 | -0.6 | 2.6 | 8.2 | -20 | -2 | -16 | 0
CC(c1ccco1)N(C(=O)C12CC3CC(CC(C3)C1)C2)c1ccccn1 (stereo not given) | 1.7 | -0.8 | -1.3 | -1.1 | 8 | -2 | -6 | 1
Cc1cc(C)c(C(=O)CSc2nnc(-c3ccccc3Br)o2)cc1C | 2.7 | . | -2.8 | . | 6 | 1 | . | -7
Cc1ccccc1NS(=O)(=O)c1ccc(C(=O)NCC2CCCO2)cc1 (stereo not given) | 0.3 | -0.6 | 1.8 | . | 9 | 10 | 2 | 4
Cc1cc(C)cc(NC(=S)Nc2cccc3ccccc23)c1 | 1.0 | 0.4 | 6.3 | 0.0 | -3 | 0 | 3 | 5
COC(=O)c1oc2nc(C)cc(C)c2c1N | -251 | -4.0 | -5.5 | 2.9 | -4 | 7 | -1 | -5
NC(=O)NC(c1ccccc1)c1ccccc1F (stereo not given) | 0.9 | 0.1 | 1.7 | -4.4 | -31 | 3 | -2 | -1
O=c1nc2ccccn2c2ccc(S(=O)(=O)N3CCCCC3)cc12 | -360 | 2.0 | -1.2 | -0.6 | 3 | -1 | -3 | 1
Cc1[nH][nH]c(=O)c1C=NCc1cccc(C(F)(F)F)c1 | 4.7 | -0.1 | -2.0 | 4.0 | 1 | -6 | -3 | -4
COc1ccc(CNC(=O)C2CC(=O)N(C3CCCCC3)C2)cc1 (stereo not given) | 4.7 | 0.4 | 21* | 3.3 | ? | -14 | 1 | -6
Cc1cc(C)c(S(C)(=O)=O)c(Oc2ccc(C(C)(C)C)cc2)n1 | -5.9 | -0.6 | 0.9 | 3.3 | 22 | ? | 7 | 6
CCc1cccc2c(=O)c(C(=O)N3CCCCCC3)c[nH]c12 | 2.9 | 0.1 | 10 | -1.3 | -5 | 0 | 1 | 9
Nc1nc(Sc2c([N+](=O)[O-])cc(C(F)(F)F)cc2[N+](=O)[O-])n[nH]1 | 5.5 | -0.7 | -3.3 | -2.8 | 10 | 7 | 1 | 2
CCc1ccccc1NC(=O)CC1CS(=O)(=O)CC1CC(=O)Nc1ccccc1CC (stereo not given) | -2.7 | 0.3 | 3.5 | 0.1 | -21 | -1 | 3 | 0
CCOc1ccc(N(Cc2ccccc2F)C2=NC3CS(=O)(=O)CC3S2)cc1 (stereo not given) | 6.1 | 0.4 | 3.0 | -2.0 | -5 | 3 | -17 | -9
COc1ccc(Br)cc1C(=O)Nc1ccc(O)cc1 | 1.7 | 0.0 | 1.8 | 2.7 | 2 | 45 | -4 | -11
Cc1cccc(CCN2C(Nc3ccccc3)=NC[C@@H]2C)c1 | -0.5 | 0.5 | . | 0.2 | . | . | -1 | -5
COC(=O)c1ccc(OCc2nc(N)nc(N3CCOCC3)n2)cc1 | -0.7 | 1.4 | 1.4 | -4.3 | -1 | 1 | 4 | 2
O=C(CSc1nnc(C2CC2)n1C1CC1)c1ccccc1F | 2.0 | 1.2 | . | 0.4 | . | . | -1 | -3
Cc1nnc(N(Cc2ccco2)C(=O)c2cccc(C#N)c2)s1 | -1.1 | -0.3 | ? | 7.6 | -12 | 9 | -8 | -13
C=CCOC(=O)CCCCCCCC | -0.6 | 0.4 | . | 11 | . | . | -3 | 1
Cc1cc2occ(CC(=O)N(C)CC(=O)Nc3ccc(F)cc3)c2cc1C | 2.4 | 0.5 | 9.6 | -12 | -11 | -7 | -6 | 5
The list continues.
SMILES | UCH37 inh | Bfl-1 A1 inh | RanGTP-Impb inh | LANA-H2A inh | T cruzi inh | Calb FLC | Beta cell apopt | B2AR ag
COc1ccc(-n2nc(C(=O)NCC(=O)N3CCCC(C)C3)c3ccccc3c2=O)cc1 (stereo not given) | 0.5 | 0.4 | 5.2 | 0.7 | 5 | 8 | -1 | -6
CC(C)NC(=O)Cn1c(SCC(=O)N2CCCc3ccccc32)nc2ccccc21 | -1.1 | -0.5 | 2.7 | -1.8 | 3 | ? | -1 | -10
COc1ccc(/C=N/Nc2ncnc(Cl)c2N)cc1OC | . | 0.5 | 2.7 | 1.9 | 4 | -2 | -14 | 4
COc1ccc(NCC(=O)N/N=C/C2CCCCC2)cc1 | . | 0.5 | 3.6 | 8.4 | -1 | -9 | 0 | -3
CC(C)(C)NC(=O)c1oc2ccccc2c1COc1ccccc1 | 0.9 | 1.1 | -0.7 | 1.2 | -4 | 2 | -4 | -11
Cc1cc(C)c(C#N)c(Sc2nnnn2-c2ccccc2)n1 | 2.1 | 0.2 | 4.1 | -6.6 | -10 | 4 | 0 | 4
CC(C)(C)NC(=O)C(c1ccncc1)N(C(=O)C1CSC(=O)C1)c1ccccc1 (stereo not given) | 3.2 | -0.5 | -1.5 | -6.8 | 1 | -7 | 2 | 0
CCCCNS(=O)(=O)c1ccc(OC)c(Cl)c1Cl | 7.4 | -0.2 | 1.4 | -2.5 | 2 | 11 | -4 | 0
CSc1nc(NCc2ccco2)c2ccccc2n1 | -4.3 | -0.3 | 0.9 | 0.8 | 7 | 6 | . | -2
CCN(CC)S(=O)(=O)c1cc(OC)c(C)cc1C | -0.7 | 0.0 | ? | 1.0 | 4 | -7 | . | 1
COc1cc(C(=O)NCCc2ccc(S(N)(=O)=O)cc2)cc(OC)c1OC | 2.5 | 0.7 | -4.3 | 0.3 | -11 | 3 | 1 | -12
Cc1cc(O)ccc1NC(=O)c1ccccc1 | -2.5 | 0.0 | -4.8 | 3.3 | -13 | -7 | -4 | -5
O=C(COC(=O)/C=C/c1ccc(C(F)(F)F)cc1)NC1CC1 | -0.3 | -1.1 | 0.6 | . | -5 | -4 | -3 | -8
O=C(c1cccc(Cl)c1)N1CCC(N2CCC(C(=O)N3CCCC3)CC2)CC1 | 0.7 | -0.2 | 4.7 | -3.0 | -10 | 6 | -2 | 2
CC(C)Cn1c(N)c(C(=O)COC(=O)CCc2nc3ccccc3s2)c(=O)n(C)c1=O | 1.1 | 1.2 | 4.5 | 0.8 | -11 | -6 | -4 | -4
